Source: PubChem BioAssay (several laboratories)
Vif A3G = inhibitors of Vif binding to APOBEC3G peptide, primary screen, biochemical, TR-FRET, GST-Vif 1-94, biotin-A3G peptide, dose response retest (AID 1117319); Virion infectivity factor (Human immunodeficiency virus type 1 group M subtype B (isolate …; TR-FRET GST-Vif / biotin-A3G peptide binding; higher % means a stronger effect; test concentration not given here; strong numbers were not always called active; inhibition, %, or IC50 in µM where a hit was titrated; 0.57% of 260,000 active;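 active means above the screen mean plus three standard deviations and confirmed in dose response; inconclusive means results disagree or hit not tested in dose response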;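 further: Vif residues 1-94 fused to GST binding biotinylated APOBEC3G peptide 110-148; 0% = full assay without inhibitor and 100% = GST in place of GST-Vif; retest series ran down from 100 µM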
RanGTP-Impb inh = inhibitors of RanGTP-importin-beta interaction, primary screen, biochemical, FRET, CFP-Ran, YFP-importin-beta, homogeneous. Ran GTPase (GTP-bound) - importin-beta complex. cell-free CFP-Ran/YFP-importin-beta FRET ratio. inhibition, % (concentration not given with the values). 1.1% of 300,000 active. AID 2216, 2009;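 active means most replicates above 15%; inconclusive means exactly half above 15%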;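 further: 0% = DMSO wells and 100% = Ran loaded with GDP instead of GTP; wells of about 40 µL received 100 nL stock; the first replicate is given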
Beta2AR agonist = beta2AR agonists driving receptor internalization, primary screen, cell-based, FAP fluorogen, flow cytometry. Beta-2 adrenergic receptor (Homo sapiens), P07550. Am2.2-beta2AR cells; reference of the scale not given here. response, % (no concentration beside the values). 0.43% of 340,000 active. AID 504454, 2011;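 active means response above a set limit, near 3 SD of response in nonfluorescent compounds, cut at about 42% in these data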;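 further: stock transfer was 100 nL into about 11 µL; a reference agonist was the positive control; negative values mostly stem from fluorescent compounds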
Target sequence (P07550 whole entry, looked up): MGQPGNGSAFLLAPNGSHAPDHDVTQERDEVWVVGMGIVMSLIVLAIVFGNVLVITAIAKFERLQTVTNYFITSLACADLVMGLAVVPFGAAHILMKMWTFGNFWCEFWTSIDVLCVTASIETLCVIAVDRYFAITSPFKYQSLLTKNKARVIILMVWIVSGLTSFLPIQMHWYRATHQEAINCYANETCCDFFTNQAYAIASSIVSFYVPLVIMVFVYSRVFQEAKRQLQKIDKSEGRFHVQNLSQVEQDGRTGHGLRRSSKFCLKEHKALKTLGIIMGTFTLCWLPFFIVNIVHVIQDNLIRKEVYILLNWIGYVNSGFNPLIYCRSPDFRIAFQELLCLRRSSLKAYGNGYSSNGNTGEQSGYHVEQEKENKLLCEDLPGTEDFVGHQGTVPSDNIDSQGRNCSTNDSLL
LANA-H2B inh = blockers of LANA interaction with H2A/H2B – biochemical, FP readout, HTS, primary screen. Protein LANA1 (Human herpesvirus 8 type P (isolate GK18)), Q9QR71. cell-free LANA-H2A/H2B peptide, fluorescence polarization. AID 2629, 2010. inhibition, % (concentration not given with the values). 0.6% of 320,000 active; in the data active means inhibition mostly above about 10%, no sharp cut-off; inactive means mostly below about 6.7%;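 further: stock transfer was 7.5 nL into about 10 µL; 0% = median of vehicle wells and 100% = median of positive control wells; one replicate is shown; the record names a cut of 25% in any replicate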
ALR inh = inhibitors of human ALR sulfhydryl oxidase, primary screen, biochemical, H2O2 detection, HRP-luminol luminescence, single point | 3.8% of 290,000 active | FAD-linked sulfhydryl oxidase ALR (Homo sapiens), P55789 | AID 485317, 2010 | inhibition, % (test concentration not listed) | purified ALR, DTT oxidation;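 active means mean and each replicate at 75% or more; inconclusive means only one of the two met; inactive means neither met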;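 further: stock transfer was 7.5 nL into about 7.5 µL; 0% = neutral wells and 100% = wells with inactivated enzyme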
Target sequence (P55789 whole entry, looked up): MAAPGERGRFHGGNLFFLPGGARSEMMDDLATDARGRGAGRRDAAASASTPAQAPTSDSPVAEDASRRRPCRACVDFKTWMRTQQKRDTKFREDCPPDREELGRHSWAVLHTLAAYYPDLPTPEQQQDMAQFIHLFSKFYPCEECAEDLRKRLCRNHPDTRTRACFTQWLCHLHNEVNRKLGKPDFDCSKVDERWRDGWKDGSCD
HNF4A DNA FP = change in binding of human HNF4A to DNA, primary screen, biochemical, fluorescence polarization, FITC-DNA. AID 1224865, 2016. activity change, % at 10 µM. 1 h. 0.3% of 360,000 active. Hepatocyte nuclear factor 4-alpha (Homo sapiens), P41235; in the data active means activity change above about 30%, passing the limit was not always enough;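 further: controls were the assay level and a saturating level of protein; the project sought stronger binding though the title names inhibitors; some compounds called inactive have numbers as strong as hits; positive values seem to mean higher polarization but the record does not say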
Calb FLC = C. albicans growth inhibition with fluconazole, primary screen, CaCi-2 strain, Alamar Blue fluorescence. C. albicans CaCi-2 (fluconazole-resistant clinical isolate) + fluconazole, 48 h. growth inhibition, % (no concentration beside the values). 0.57% of 300,000 active. AID 1979, 2009;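 active means most replicates above 75%; inconclusive means exactly half above 75%; inactive means most below 75%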;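 further: all wells also contain fluconazole at 8 µg/ml as a sub-toxic cotreatment; 0% = median of DMSO wells and 100% = median of geldanamycin control wells; wells of about 8 µL received 7.5 nL stock; the first replicate is given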
* = called active by the depositor; ? = inconclusive; / = not tested or not shown; & = joins results of further samples.

SMILES	Vif A3G	RanGTP-Impb inh	Beta2AR agonist	LANA-H2B inh	ALR inh	HNF4A DNA FP	Calb FLC
COC(=O)c1ccccc1NC(=O)N1CCN(C(=O)c2ccco2)CC1	-3%	?	-1	-0.3	/	0.6	-6
CCN(C(=O)COC(=O)/C=C/c1cnc2ccccc2n1)C1CCS(=O)(=O)C1 (centres undefined)	-1%	1.5	-7	0.1	6	5.2	-3
COc1cc2cc(C(c3nnnn3C3CCCC3)N3CCCCC3)c(=O)[nH]c2cc1OC (centres undefined)	-1%&-9%	-2.5	-1	-2.4	-4	-2.9	1
Cc1ccc(OCC(=O)Nc2ccccc2-c2ccccc2NC(=O)COc2ccc(C)cc2)cc1	/	-2.6	5	0.2	-13	-1.7	2
O=C1Cc2ccccc2C(c2ccc(Cl)cc2Cl)N1 (centres undefined)	10%	-1.8	-7	2.1	0	7.5	3
O=C(O)c1ccc2c(c1)C(=O)N(NC(=O)c1ccc(O)cc1)C2=O	?	?	-5	1.7	13	-0.3	7
O=C(O)c1c[nH]c2ccc([N+](=O)[O-])cc2c1=O	3%	/	-1	/	/	2.0	/
COc1ccccc1-c1c(C)[nH]n2c(=O)c(Cc3ccccc3)c(C)nc12	65%	-2.7	-4	7.8	5	2.7	-6
COC(=O)c1ccc(NS(=O)(=O)c2ccc(S(=O)(=O)N3CCOCC3)cc2)cc1	/	/	-2	-8.7	-3	3.0	/
O=C(Nc1ccc(C(=O)O)cc1)Nc1ccc(F)cc1F	-2%	3.9	10	9.2	4	3.0	-4
O=c1ccnc(SCc2ccccc2Cl)[nH]1	?	7.2	2	5.5	-14	0.8	9
COc1ccccc1NC(=O)CSc1nnc(NC(=O)c2ccco2)s1	/	-2.8	0	2.8	-3	6.0	9
Cc1ccc(-c2ccccc2NC(=O)CCl)o1	2%	-0.3	1	0.2	7	-0.6	0
CSc1nc2[nH]c(=O)n(O)c(=O)c2n1Cc1ccccc1	-4%	/	6	/	/	-4.4	/
CCC1CC(CSC(=N)N)OC1=O (centres undefined)	-8%	-0.9	1	3.4	-12	-2.4	7
COc1cccc(C(=O)CC(C(=O)O)c2ccc(Cl)cc2)c1 (centres undefined)	-7%	2.5	-3	7.1	-1	0.9	-1
c1ccc(CSc2ccc(-c3ccccn3)nn2)cc1	-11%	3.1	-21	0.1	-6	3.2	1
COC(=O)C(NC(C)=O)(Nc1nc2c(s1)CCCC2)C(F)(F)F (centres undefined)	28%	7.0	6	-0.1	-25	-3.0	-4
CCCN(C(=O)c1ccc(N2CCCC2=O)cc1)C1CCS(=O)(=O)C1 (centres undefined)	0%	/	-10	-3.8	2	2.1	/
COc1cc(CN2CCCC(CO)(Cc3ccccc3)C2)ccc1O (centres undefined)	/	0.5	4	0.1	25	-4.9	-4

The list goes on (2 carried over from the part before).
SMILES	Vif A3G	RanGTP-Impb inh	Beta2AR agonist	LANA-H2B inh	ALR inh	HNF4A DNA FP	Calb FLC
CCCN(C(=O)c1ccc(N2CCCC2=O)cc1)C1CCS(=O)(=O)C1 (centres undefined)	0%	/	-10	-3.8	2	2.1	/
COc1cc(CN2CCCC(CO)(Cc3ccccc3)C2)ccc1O (centres undefined)	/	0.5	4	0.1	25	-4.9	-4
CSc1nc(SC(C)C(=O)O)c2c3c(sc2n1)COC(C)(C)C3 (centres undefined)	/	1.7	-1	1.7	/	0.2	0
CC1CCCC(N2CCN(C(=O)c3cccc(F)c3)CC2)C1 (centres undefined)	-5%	0.4	4	0.1	2	-2.2	-5
O=[N+]([O-])c1ccc(Nc2ccccc2F)nc1	/	4.4	0	-1.7	18	4.2	-35
Cc1cc(C)c(NC(=O)CN)c(C)c1	-3%	-2.6	2	-2.3	-17	-0.2	3
COc1ccc(NC(=O)c2cc3n(n2)C(C(F)(F)F)CC(c2ccco2)N3)cc1 (centres undefined)	19%	2.3	8	-0.2	-6	-2.6	-3
OCCc1ccccc1	/	3.2	/	4.6	10	/	/
Cc1cccc(NC(=O)CSc2nnc(-c3ccco3)o2)c1C	-1%	-2.7	0	-1.3	-8	0.6	3
CCOC(=O)NC(c1cccc(Cl)c1)C1CCCCCC1=O (centres undefined)	5%	1.0	-10	0.6	-2	0.1	28
C=C(C)CSc1nc(N)cc(=O)[nH]1	?	?	3	2.2	-15	-9.0	/
Cc1cc(C(=O)COc2ccccc2Cl)c(C)n1-c1ccc2c(c1)OCO2	/	0.3	-2	9.5	-14	-0.3	?
Cc1sc2nc(CN(Cc3cccs3)C(=O)NC3CCCCC3)[nH]c(=O)c2c1C	16%	5.1	3	-1.0	2	3.3	3
COc1ccccc1NC(=O)NNC(=O)c1ccc2c(c1)NC(=O)C(C)(C)O2	/	2.9	12	-1.9	5	-1.5	-2
COc1ccc(-c2noc(-c3ccccc3C(=O)Nc3cccnc3)n2)cc1OC	-9%	1.6	16	2.8	-15	0.3	-15
CCOc1ccc(NC(=O)CSc2n[nH]c(=O)n2-c2ccccc2)cc1	12%	-0.1	8	3.7	-2	-2.2	14
COc1ccc(OC)c(C(=O)N(C)C2CCCN(Cc3ccccc3F)C2)c1 (centres undefined)	-4%	-1.1	1	-1.3	/	-4.3	-4
Cc1cccc(Cn2nc(C)cc2NC(=O)Cn2cc([N+](=O)[O-])cn2)c1	17%	?	1	1.4	-2	1.2	10
Cc1ccccc1NC(=S)NC1CC2CCC(C1)N2Cc1ccco1 (centres undefined)	-4%	-0.6	6	-4.5	-11	0.7	-14
O=S(=O)(NCCc1ccccc1)c1cccs1	/	0.8	1	-3.7	2	0.6	12
CN1CC(=O)N(CC(=O)N2CCC(Cc3ccccc3)CC2)C1=O	0%	-1.9	-5	-3.2	1	-3.2	2
O=C(CCc1nnc(CCC2CCCCC2)o1)NCCn1cccn1	12%	-1.7	0	15*	/	-3.4	-2
O=c1ccc(-c2ccc(S(=O)(=O)Nc3ccccc3)o2)n[nH]1	/	7.8	-1	0.4	0	1.4	3
Cn1cc(S(=O)(=O)N2CCc3ccccc32)cc1C(=O)NC1CCCCC1	/	1.2	-8	3.3	-8	-3.1	-4
COc1ccc(/C=C/C(=O)Nc2cccnc2Cl)cc1	/	1.1	-2	2.3	-8	1.3	2
O=c1[nH]c2ccccc2n1CCCOc1ccccc1	-2%	-0.8	5	1.2	-6	-5.4	-28
COc1ccc(CCN(CC(=O)NC2CCCC2)C(=O)CCC(=O)Nc2cc(C)on2)cc1OC	8%	-1.6	9	3.3	-5	0.0	5
FC(F)(F)c1ccc(C2[C@H]3CN(Cc4ccc(-c5ccccc5)cc4)[C@H](c4ccccc4)C34CC2(c2cccnc2)C4)cc1 (some centres undefined)	/	?	/	-2.1	2	/	-5
CCOc1ccc(-n2c(SC)nc3c(c2=O)SCC3)cc1	68%	1.6	-10	3.0	-5	2.8	36
CC(CNC(=O)c1ccc(C(C)(C)C)cc1)CN(C)C (centres undefined)	12%	1.4	0	-9.7	11	-1.0	12
C[C@H](CO)N1C[C@H](C)[C@@H](CN(C)Cc2ccccc2)Oc2c(NS(=O)(=O)c3ccc(F)cc3)cccc2C1=O	/	/	-1	-1.2	1	1.1	/
CC(C)Cc1nc2sc3c(c2c(=O)n1N)CC(C(C)C)OC3 (centres undefined)	5%	-1.0	-3	9.3	/	0.7	6
CSCCC(NS(=O)(=O)c1ccc(Cl)cc1)C(=O)OCC(=O)NC1CCCCC1 (centres undefined)	-6%	-2.2	5	-3.1	-2	-1.8	-4
C=CCn1c(Oc2ccc(C=O)cc2OCC)nc2c1c(=O)n(C)c(=O)n2C	-10%	-2.9	11	1.9	4	3.1	8
Cn1c(NC(=O)C[n+]2cc(-c3ccc(F)cc3)n3c2CCC3)cc(=O)n(C)c1=O	/	-4.5	4	1.1	/	0.3	21
COc1cccc(OC)c1-c1nn2c(-c3cc(-c4ccccc4)n[nH]3)nnc2s1	-21%	-5.8	100*	-5.7	-10	225*	7
COc1ccc(-c2cn(-c3ccc(C)c(C)c3)c(=S)[nH]2)cc1OC	2%	6.3	-7	-1.1	7	-0.4	/
Cc1cc2nc3n(c2cc1C)CCCN3	4%	-1.0	-5	-0.6	/	-0.3	-2
COc1cc(C(=O)N/N=C/c2ccsc2C)cc(OC)c1OC	1%	1.6	19	-3.8	/	-0.9	-1
O=C(N/C(=C/c1ccc(Cl)cc1)C(=O)N1CCOCC1)c1ccccc1	-3%	2.1	-1	3.8	-3	0.3	-1
CC(NC(=O)c1ccccc1)c1nnc(SCC(=O)Nc2nnc(C3CC3)s2)n1C (centres undefined)	-1%	-3.6	-1	/	/	-1.2	6
COc1ccc(CNC(=O)C(=O)NC2CC(C)(C)NC(C)(C)C2)cc1	3%	-2.5	2	-1.0	-18	138*	0

Arranged by count of non-hydrogen atoms (descending): 6 of the compounds above
SMILES	Vif A3G	RanGTP-Impb inh	Beta2AR agonist	LANA-H2B inh	ALR inh	HNF4A DNA FP	Calb FLC
FC(F)(F)c1ccc(C2[C@H]3CN(Cc4ccc(-c5ccccc5)cc4)[C@H](c4ccccc4)C34CC2(c2cccnc2)C4)cc1 (some centres undefined)	/	?	/	-2.1	2	/	-5
O=C(N/C(=C/c1ccc(Cl)cc1)C(=O)N1CCOCC1)c1ccccc1	-3%	2.1	-1	3.8	-3	0.3	-1
CC(C)Cc1nc2sc3c(c2c(=O)n1N)CC(C(C)C)OC3 (centres undefined)	5%	-1.0	-3	9.3	/	0.7	6
CCOc1ccc(-n2c(SC)nc3c(c2=O)SCC3)cc1	68%	1.6	-10	3.0	-5	2.8	36
O=c1[nH]c2ccccc2n1CCCOc1ccccc1	-2%	-0.8	5	1.2	-6	-5.4	-28
Cc1cc2nc3n(c2cc1C)CCCN3	4%	-1.0	-5	-0.6	/	-0.3	-2

(next part)
SMILES	Vif A3G	RanGTP-Impb inh	Beta2AR agonist	LANA-H2B inh	ALR inh	HNF4A DNA FP	Calb FLC
COc1ccc(CN2C(=O)COc3ccccc32)cc1	/	?	0	-0.1	/	0.7	3
O=S(=O)(NCCS(=O)(=O)N1CCN(c2ccccc2)CC1)c1ccccc1	/	1.5	7	1.1	2	-1.0	-4
Cc1cc(-c2nn(-c3ccccc3F)cc2CNCCc2cnccn2)c(C)s1	14%	5.0	-17	2.7	-16	-1.4	-8
Cc1cc(NC(=O)CN2C(=O)[C@@H]3[C@H](C2=O)[C@@H]2C[C@H]3C(Br)C2Br)no1 (some centres undefined)	/	?	-10	12	/	4.2	18
COc1ccc(-c2c(C)nn(-c3ccccc3)c2NC(C)=O)cc1OC	/	2.9	-1	-5.9	21	-1.8	2
O=[N+]([O-])c1cccnc1Oc1ccccc1F	7%	7.5	5	-0.5	-3	-1.9	-3
Cn1cccc1Cc1nnc(SCC(=O)N2CCOCC2)n1-c1ccc(F)cc1	7%&-7%	1.9	-1	1.8	22	3.2	14
CCOc1ccc2nc(NC(=O)CSc3ccccc3)sc2c1	2%	-2.3	2	3.5	-5	4.7	1
Cc1ccc(C)c(NC(=O)C2CC3CCC2C3)c1 (centres undefined)	/	6.1	-2	9.8	1	-5.0	-2
